E coli growth: E. coli growth inhibition | Escherichia coli growth, OD600, 23 h; active compounds read low | OD600 absorbance (concentration not given with the values) | hit rate 0.21% among 330,000;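 active = OD600 absorbance below the run mean of sample wells minus 3.6 SD, in any replicate, cut at about 0.56 in these data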;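 also: stock transfer was 300 nL into about 60 µL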
Ecoli rRNA inh: selective bacterial rRNA inhibition in E. coli | GFP signal change (wild-type ribosome), % (test concentration not listed) | hit rate 1.6% among 350,000 | AID 720706 | E. coli WT GFP vs humanized-ribosome RFP mutants, fluorescence, 24 h; active compounds read low; DMSO median 0, no signal -100;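 active = significant combined selectivity score with lowered wild-type GFP, culture density cut under 30%, mutant RFP and density less affected; inactive = any of these conditions unmet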; also: one replicate is shown; some compounds called inactive have numbers as strong as hits
FGF22 binding: FGF22 (human) thermal shift binding. Q9HCT0. recombinant FGF22 thermal shift, SYPRO orange fluorescence; percent of sucrose octasulfate shift, DMSO zero. calls only at 9.99 µM. hit rate 1.5% among 340,000. AID 651658;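 active = melting point raised past a set limit in the mean and every replicate; inconclusive = no clear call; three in four hits are not shown here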
Target sequence (Q9HCT0 whole entry, looked up): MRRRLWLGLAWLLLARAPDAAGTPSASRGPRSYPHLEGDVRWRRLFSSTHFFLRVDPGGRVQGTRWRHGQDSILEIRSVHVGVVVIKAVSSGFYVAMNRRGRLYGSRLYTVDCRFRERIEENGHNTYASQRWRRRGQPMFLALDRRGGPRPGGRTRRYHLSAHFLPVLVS
ALR H2O2 inh: human ALR oxidase inhibition via reduced H2O2. purified ALR, DTT oxidation, H2O2 HRP-luminol luminescence. P55789. hit rate 3.8% among 290,000. inhibition, % (concentration not given with the values). AID 485317;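 active = mean and each replicate at 75% or more; inconclusive = only one of the two met; inactive = neither met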;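 also: stock transfer was 7.5 nL into about 7.5 µL; 0% = neutral wells and 100% = wells with inactivated enzyme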
Target sequence (P55789 whole entry, looked up): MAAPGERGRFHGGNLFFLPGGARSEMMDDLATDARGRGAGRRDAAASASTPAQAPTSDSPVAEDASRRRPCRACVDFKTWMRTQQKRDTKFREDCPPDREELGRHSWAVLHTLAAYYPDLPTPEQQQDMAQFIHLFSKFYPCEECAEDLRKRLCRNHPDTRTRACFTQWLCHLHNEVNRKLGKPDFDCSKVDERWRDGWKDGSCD
HNF4A DNA FP: change in binding of human HNF4 alpha to DNA. P41235. hit rate 0.3% among 360,000. activity change, % at 10 µM. HNF4a-FITC DNA binding, fluorescence polarization, 1 h; in the data active = activity change above about 30%, passing the limit was not always enough;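 also: controls were the assay level and a saturating level of protein; the project sought stronger binding though the title names inhibitors; some compounds called inactive have numbers as strong as hits; positive values seem to mean higher polarization but the record does not say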
Target sequence (P41235 whole entry, looked up): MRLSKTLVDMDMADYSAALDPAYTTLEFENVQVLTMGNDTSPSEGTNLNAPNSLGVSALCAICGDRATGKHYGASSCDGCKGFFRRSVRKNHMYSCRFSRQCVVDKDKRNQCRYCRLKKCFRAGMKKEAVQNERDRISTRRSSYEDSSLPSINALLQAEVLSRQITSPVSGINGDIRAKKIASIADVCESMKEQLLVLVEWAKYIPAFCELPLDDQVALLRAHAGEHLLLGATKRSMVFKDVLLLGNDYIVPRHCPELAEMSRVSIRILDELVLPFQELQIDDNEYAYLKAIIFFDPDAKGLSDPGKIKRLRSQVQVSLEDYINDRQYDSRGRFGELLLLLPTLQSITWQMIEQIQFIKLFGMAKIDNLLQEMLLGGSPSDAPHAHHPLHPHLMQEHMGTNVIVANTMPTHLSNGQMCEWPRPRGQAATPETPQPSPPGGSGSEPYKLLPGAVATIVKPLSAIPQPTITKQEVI
Beta2AR agonist: human beta-2 adrenergic receptor agonism by FAP | P07550 | Am2.2-beta2AR cells, FAP receptor internalization, flow cytometry; reference of the scale not given here | response, % (test concentration not listed) | hit rate 0.43% among 340,000 | AID 504454;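 active = response above a set limit, near 3 SD of response in nonfluorescent compounds, cut at about 42% in these data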;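 also: stock transfer was 100 nL into about 11 µL; a reference agonist was the positive control; negative values mostly stem from fluorescent compounds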
UCH37 DUB inh: human UCH37 deubiquitinating enzyme inhibition; purified proteasome/UCH37, Ub-AMC cleavage fluorescence; inhibition, % (concentration not given with the values); hit rate 0.33% among 330,000;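 active = mean of two replicates above 20%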;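 also: 0% = compound-free wells with enzyme and 100% = wells lacking proteasome; stock transfer was 100 nL into about 20 µL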
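Signal – fluorescence, ex 355 nm, em 460 nm · System – Proteasome-bound UCH37 · Input – 0.15 nM proteasome as dispensed · Timing – 30 min preincubation with enzyme, 25 min cleavage at room temperature · Read-out basis – percent inhibition of cleavage signal versus uninhibited and no-proteasome wells · Medium – Tris-HCl pH 7.4 with ATP-MgCl2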
Ecoli rRNA inh OD600: recorded beside Ecoli rRNA inh, whose call it bears; OD600 change, %; measured here: OD600 growth;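 optical density of the mix in the first replicate; 0 = DMSO median and -100 = no signal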
Ecoli rRNA inh RFP: also measured in Ecoli rRNA inh; calls as there; RFP signal change, %; measured here: RFP humanized mutant strains;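 first replicate; 0 = DMSO median and -100 = no signal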
* hit, by the source's call; i = inactive; ? = inconclusive; . = not tested or not shown. The list is partial; rates above refer to the full screens.

cpd | Compound | Ecoli rRNA inh | FGF22 binding | E coli growth | ALR H2O2 inh | HNF4A DNA FP | UCH37 DUB inh | Beta2AR agonist | Ecoli rRNA inh OD600 | Ecoli rRNA inh RFP
1 | N#CCC(=O)Nc1ccc(C(=O)OCC(=O)N(C2CCCCC2)C2CCCCC2)cc1 | 4 | i | 0.68 | -14 | 3.8 | -2.4 | 1 | 2 | 1.4
2 | O=C(Nc1cccnc1)c1ccc(NC(=O)c2ccco2)cc1 | . | . | 0.71 | -3 | 0.9 | 3.7 | -2 | . | .
3 | CCC(C)NC(=O)[C@@H]1CCCN1C(=O)C1CCN(S(=O)(=O)c2ccc(C)cc2)CC1 (stereo partly drawn) | 7 | i | 0.62 | -5 | 0.3 | -3.8 | 7 | 7 | -2.1
4 | c1cncc(Oc2cccc(Oc3cccnc3)c2)c1 | . | . | 0.76 | 0 | -2.4 | 6.4 | -25 | . | .
5 | CN(Cc1ccccc1)C(=O)c1nn2cccnc2c1Cl | 3 | i | 0.69 | 18 | 4.0 | 3.9 | -3 | 2 | 4.2
6 | Cc1ccc(CNc2nc3ccc(C)cc3n3cnnc23)cc1 | 13 | i | 0.8 | -4 | 9.1 | -48 | 1 | 18 | 0.7
7 | Fc1ccc2c(c1)C(c1ccncc1)=NNC(c1ccc(Cl)cc1)=N2 | . | . | 0.72 | -4 | 2.1 | 3.0 | -3 | . | .
8 | COc1ccc(NC(=O)CCn2c(=S)[nH]c3ccccc3c2=O)cc1 | 2 | i | 0.68 | -2 | -0.6 | 3.4 | 0 | 18 | -4.1
9 | COc1ccc(OC)c(N/C=C/C(=O)c2ccc(OC)c(OC)c2)c1 | -5 | i | 0.63 | -12 | 9.1 | -42 | 7 | 9 | 0.7
10 | Cc1ccc(NC(=O)COC(=O)c2cc(Cl)cc(Cl)c2)c(Br)c1 | . | . | 0.69 | -9 | -1.1 | 0.5 | 4 | . | .
11 | CCn1c(SCC(=O)NCc2ccc3c(c2)OCO3)nnc1-c1ccco1 | 0 | i | 0.66 | -2 | -0.7 | -1.1 | -9 | 5 | -1.1
12 | CCOCc1nnc(NC(=O)C2CCN(C(=O)C3CC(=O)N(c4ccc(C)cc4)C3)CC2)s1 (stereo not drawn) | 2 | i | 0.66 | -13 | -0.5 | 1.5 | -2 | 3 | -1.9
13 | CC(C)CCNC(=O)c1ccc(Cl)c(N)c1 | . | . | 0.67 | -2 | . | -1.4 | . | . | .
14 | NC(=O)CSc1nc(-c2ccccc2Cl)ns1 | . | . | 0.69 | 1 | 4.9 | 2.8 | 4 | . | .
15 | O=c1c2ccccc2nc2n1CCc1ccc(Br)cc1-2 | 11 | i | . | . | 1.6 | . | . | 13 | 2.3
16 | Cc1cc(C(=O)CSc2n[nH]c(N)n2)c(C)n1-c1ccc(F)cc1 | . | . | 0.72 | ? | 0.2 | 0.7 | -10 | . | .
17 | O=C(Nc1ccc(Cl)c(C(F)(F)F)c1)[C@@H]1CC=C[C@@H]2CCN(C3CCCCC3)C(=O)[C@@H]21 | 7 | i | . | 0 | -5.6 | -1.7 | 6 | 8 | -6.8
18 | Cn1c(=O)oc2cc(S(=O)(=O)NCCC(=O)N3CC=C(c4ccccc4)CC3)ccc21 | . | . | 0.73 | -3 | 0.9 | 1.6 | -1 | . | .
19 | O=C1C(=O)c2cccnc2-c2ncccc21 | -52 | i | . | . | -0.3 | . | . | -77 | -16
20 | CN(CC(=O)Nc1ccc(F)cc1)C(=O)c1ccncc1 | 25 | i | 0.69 | 1 | -0.3 | 2.5 | -7 | 13 | 0.0
21 | CCOC(=O)C(CCCOc1cccc(OC)c1)C(=O)OCC | . | . | 0.72 | . | 1.9 | 1.1 | 5 | . | .
22 | Cc1onc(-c2c(F)cccc2Cl)c1C(=O)NCCCN1CCOCC1 | 10 | i | 0.74 | . | 0.6 | 3.5 | -6 | 7 | 2.1
23 | O=C(CN1CCOCC1)N1CCN(c2ccc([N+](=O)[O-])cc2)CC1 | 6 | i | 0.7 | -1 | -2.4 | 11 | 3 | 5 | -8.2
24 | O=C(Cn1cnc2c(cnn2-c2ccccc2)c1=O)N1CCOCC1 | 7 | i | 0.69 | 7 | -3.6 | 2.4 | 5 | 8 | -0.8
25 | CCNC(=O)c1cc2ccccc2o1 | . | . | 0.67 | -9 | -1.4 | -0.5 | -3 | . | .

(more compounds)
cpd | Compound | Ecoli rRNA inh | FGF22 binding | E coli growth | ALR H2O2 inh | HNF4A DNA FP | UCH37 DUB inh | Beta2AR agonist | Ecoli rRNA inh OD600 | Ecoli rRNA inh RFP
26 | O=C(CCCn1c(=O)[nH]c2ccsc2c1=O)Nc1ccc(F)cc1 | -2 | i | 0.65 | 3 | 0.3 | 5.2 | 19 | 3 | -1.7
27 | COc1ccccc1-n1cc2ccc([N+](=O)[O-])cc2n1 | -12 | i | 0.7 | -5 | 0.2 | 3.2 | -2 | 3 | -1.6
28 | COc1ccc(NC(=O)COC(=O)C2CCN(S(=O)(=O)c3cccs3)CC2)cc1OC | 0 | i | 0.7 | 0 | 2.6 | 3.6 | -2 | -3 | 0.2
29 | CCOC(=O)C1=C(N)N2C(=O)C(C)SC2=C(C(=O)OC)C1c1ccccc1OC (stereo not drawn) | . | . | 0.72 | . | -0.2 | 2.9 | -8 | . | .
30 | CCOC(=O)CNC(=O)CSc1nc(NCc2ccccc2)nc(N(C)C)n1 | . | . | 0.68 | 1 | 0.7 | -2.0 | 13 | . | .
31 | Cc1ccc(NC(=O)NN2CCN(C)CC2)cc1C | 8 | i | 0.74 | -16 | -1.3 | 6.2 | -1 | 3 | -0.6
32 | COc1ccccc1CNC(=O)C1(NC(=O)Nc2ccc(C)cc2)CCCCC1 | 11 | i | 0.65 | -3 | 5.3 | 2.9 | 8 | 0 | -3.0
33 | O=C(CN1CCN(C(=O)c2ccccc2F)CC1)Nc1ccc(Br)cc1 | . | . | 0.71 | . | 4.0 | 1.3 | 1 | . | .
34 | COc1cc2[nH]c(C(=O)N3CCc4ccccc43)cc2c(OC)c1OC | 5 | i | 0.64 | -5 | 0.1 | 0.7 | -2 | 5 | -0.8
35 | Cc1nn(CCCC(=O)NCCCN2CCN(C)CC2)c(=O)c2c1sc1ccccc12 | 1 | i | 0.67 | -11 | 4.3 | 0.1 | -6 | 3 | 0.2
36 | Cc1cnc(C(=O)Nc2ccc(C)c(S(=O)(=O)N(C)C)c2)cn1 | 6 | i | 0.66 | . | 2.4 | 5.5 | -1 | 2 | -3.9
37 | COc1ccc(CNc2nc3nc(C)c(Cl)c(=O)n3[nH]2)cc1 | 0 | i | 0.71 | 3 | -3.4 | 4.4 | 1 | -4 | 1.8
38 | Cc1ccc(S(=O)(=O)NOCc2ccccc2)cc1 | -6 | i | 0.71 | . | 3.3 | 1.2 | -1 | -9 | 0.4
39 | Cc1cc(=O)n2c(n1)NC(=NCc1ccccc1)NC2c1ccccc1 (stereo not drawn) | 4 | i | 0.66 | 22 | -2.3 | -6.7 | -10 | 4 | -0.9
40 | CCCC[n+]1c2ccccc2cc2ccccc21 | -58 | i | . | 43 | -4.2 | . | 15 | -78 | -3.0
41 | C=CCSc1nnc2nc3c(nn12)c1cc(C)ccc1n3CC=C | . | . | 0.71 | 3 | 1.0 | 3.5 | -6 | . | .
42 | CC(C)c1ccc(NC(=O)CN2C(=O)NC3(CCCCCCC3)C2=O)cc1 | -24 | i | 0.71 | -2 | -0.6 | 3.8 | 2 | -54 | 2.8
43 | COc1ccc(N2CCN(C(=O)COC(=O)COc3cc(C)cc(C)c3)CC2)cc1 | 2 | i | 0.71 | 34 | -2.2 | 3.8 | 1 | 1 | -1.6
44 | NC(=O)CSC1=Nc2ccccc2C2=NC(CCC(=O)NCc3ccc(F)cc3)C(=O)N12 (stereo not drawn) | . | . | 0.67 | 0 | -3.7 | -89 | -4 | . | .
45 | CCCCC(c1nnnn1CC1CCCO1)N1CCN(c2nc3ccccc3s2)CC1 (stereo not drawn) | . | . | 0.69 | . | -1.7 | 2.5 | -16 | . | .
46 | COc1ccc(C2C(C(C)=O)=C(O)C(=O)N2c2nccs2)cc1 (stereo not drawn) | . | . | 0.78 | 4 | -0.2 | 9.6 | -7 | . | .
47 | COc1ccc(OC)c(N(CC(=O)NCc2ccccn2)S(C)(=O)=O)c1 | . | . | 0.68 | -9 | 5.7 | 0.3 | 1 | . | .
48 | O=C(CNC(=O)c1cccs1)N/N=C/c1ccco1 | 5 | i | . | -6 | 0.7 | . | 0 | -1 | 0.1
49 | CCOc1ccc(C(=O)NC2CCN(CC(=O)NCc3cccs3)CC2)cc1 | 7 | i | 0.7 | 1 | -0.3 | 4.6 | 7 | -5 | -0.3
50 | COC(=O)c1ccc(=O)n(-c2ccc(OC)cc2)c1 | . | . | 0.75 | -4 | -0.1 | 1.5 | 2 | . | .

Along the list, from the results shown.
Beta2AR agonist, compounds 31–39 → -1, 8, 1, -2, -6, -1, 1, -1, -10
Ecoli rRNA inh, compounds 31–39 → 8, 11, ., 5, 1, 6, 0, -6, 4

Other compounds
cpd | Compound | Ecoli rRNA inh | FGF22 binding | E coli growth | ALR H2O2 inh | HNF4A DNA FP | UCH37 DUB inh | Beta2AR agonist | Ecoli rRNA inh OD600 | Ecoli rRNA inh RFP
51 | COc1ccc(OC)c(NC(=O)c2c(NC(=O)CNCc3ccco3)sc3c2CCC3)c1 | . | . | 0.78 | -1 | -3.2 | -33 | 1 | . | .
52 | CC1(C)CC(=O)C=C(c2ccc(-c3ccc(S(C)(=O)=O)cc3)cc2)C1=O | 3 | i | . | . | 2.8 | . | . | -1 | 0.3
53 | COc1ccc(NS(=O)(=O)c2ccc(C)c(C(=O)NNC(=O)c3ccccc3O)c2)cc1 | -14 | i | 0.65 | 13 | 0.1 | 1.1 | 7 | -15 | 6.3
54 | CCCNC(=O)C1(C)CCN(C(=O)c2cc(C(C)(C)C)nn2C)C1 (stereo not drawn) | 16 | i | . | . | 4.5 | . | . | 15 | -2.4
55 | CCCn1c(SCC(=O)NCCc2ccccc2)nnc1C(C)C | -7 | i | 0.68 | 0 | -1.8 | 0.8 | -7 | 5 | 1.6
56 | O=C(NCc1ccccc1)c1cc(C2COCCN2C(=O)CCc2ccccc2)on1 (stereo not drawn) | 1 | i | . | . | -2.0 | . | . | -5 | 4.8
57 | COc1ccc(OC)c(CN2CCN(C(=O)c3cccc4ccccc34)CC2)c1 | -6 | . | 0.69 | -2 | 7.4 | -0.2 | 12 | -3 | 3.7
58 | O=C(C[n+]1cccc2ccccc21)c1ccc([N+](=O)[O-])cc1 | 24 | i | 0.69 | -25 | 2.9 | 5.1 | 0 | 27 | 2.8
59 | O=C(NCCC1CCCCN1S(=O)(=O)c1ccccc1)C(=O)Nc1ccccc1 (stereo not drawn) | -2 | i | 0.68 | -2 | 1.1 | 2.4 | -4 | -14 | 10

Quoted at random: 4 compounds from above
cpd | Compound | Ecoli rRNA inh | FGF22 binding | E coli growth | ALR H2O2 inh | HNF4A DNA FP | UCH37 DUB inh | Beta2AR agonist | Ecoli rRNA inh OD600 | Ecoli rRNA inh RFP
55 | CCCn1c(SCC(=O)NCCc2ccccc2)nnc1C(C)C | -7 | i | 0.68 | 0 | -1.8 | 0.8 | -7 | 5 | 1.6
59 | O=C(NCCC1CCCCN1S(=O)(=O)c1ccccc1)C(=O)Nc1ccccc1 (stereo not drawn) | -2 | i | 0.68 | -2 | 1.1 | 2.4 | -4 | -14 | 10
58 | O=C(C[n+]1cccc2ccccc21)c1ccc([N+](=O)[O-])cc1 | 24 | i | 0.69 | -25 | 2.9 | 5.1 | 0 | 27 | 2.8
56 | O=C(NCc1ccccc1)c1cc(C2COCCN2C(=O)CCc2ccccc2)on1 (stereo not drawn) | 1 | i | . | . | -2.0 | . | . | -5 | 4.8

Screens as filed in PubChem BioAssay.
